Screens deposited in PubChem BioAssay by National Center for Advancing Translational Sciences (NCATS).
Cruzain Triton = inhibitors of Trypanosoma cruzi cruzain with detergent; 0.43% of 200,000 active; purified cruzain, Z-FR-AMC fluorescence, 0.01% Triton; P25779; AID 1478; Potency, µM, for the others: max response, negative = inhibition, usual class: inhibitors;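 also: plate controls were neutral wells for no effect and buffer without enzyme for full effect; nearly all actives have a fitted effect of over 40% in size; top concentration of the series not given in the record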
Target sequence (P25779 123-467 limits assumed): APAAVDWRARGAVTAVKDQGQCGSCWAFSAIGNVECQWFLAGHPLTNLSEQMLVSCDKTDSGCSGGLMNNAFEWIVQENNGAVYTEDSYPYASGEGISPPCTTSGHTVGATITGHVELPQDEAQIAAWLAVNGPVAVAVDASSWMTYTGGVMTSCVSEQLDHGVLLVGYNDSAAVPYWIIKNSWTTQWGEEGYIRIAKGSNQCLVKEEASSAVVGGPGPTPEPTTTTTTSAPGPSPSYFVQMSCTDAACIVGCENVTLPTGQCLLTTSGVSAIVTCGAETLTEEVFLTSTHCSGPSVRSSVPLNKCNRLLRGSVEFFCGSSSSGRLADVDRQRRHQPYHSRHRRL
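Read-out: AMC fluorescence (360 nm excitation, 450 nm emission), four reads over 2 min, first-to-third difference used. Conditions: cruzain 1.5 nM, Z-FR-AMC 2 uM, pH 5.5 acetate, 5 mM DTT, 0.01% Triton X-100.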
NS1 function inh = inhibitors of influenza NS1 protein function. 0.4% of 270,000 active. Potency, µM (top dose mostly 46.1 µM), inactives show top-dose activity, positive = more growth. AID 2326. S. cerevisiae slowed by influenza A NS1, growth recovery by OD600; active means well fitted rising curve with a large enough effect; inconclusive means small, poorly fitted or top-dose-only effect; inactive means no such curve, though single readings can be large or run the other way; also: nearly all actives have a fitted effect of over 50% in size
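Recovery from NS1-induced slow growth read by OD600 in budding yeast switched to galactose assay medium (pH 6.0, -URA) at 1:100 dilution. Compound 23 nl per well; the matching strain lacking NS1 serves as control.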
Cruzain inh noDet = cruzain (T. cruzi) inhibition without detergent | P25779 | purified cruzain, Z-FR-AMC fluorescence, no detergent | Potency, µM, inactives show max response, negative = inhibition, usual class: inhibitors | 2.3% of 200,000 active | AID 1476;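 also: plate controls were enzyme without inhibitor for no effect and buffer without enzyme for full effect; nearly all actives have a fitted effect of over 40% in size; top concentration of the series not given in the record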
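Purified cruzain at 1.5 nM, pre-incubated 15 min with compound at room temperature in 100 mM sodium acetate pH 5.5, 5 mM DTT, 0.00005% Triton X-100. Reaction started with 2 uM Z-FR-AMC; AMC fluorescence increase over 60 s gives rate.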
RE007 growth inh = less growth of the S. pombe RE007 Vpr strain; Potency, µM (series often up to 92.2 µM), inactives show at the top dose activity change, negative = less growth; 0.21% of 360,000 active; AID 651644; S. pombe RE007 Vpr strain, BacTiter-Glo ATP luminescence, 24 h; control for the full effect not named in the record; active = well fitted falling curve with a large enough effect; inconclusive = small, poorly fitted or top-dose-only effect; inactive = no such curve, though single readings can be large or run the other way;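 also: % is scaled to controls: 0 for no effect and ±100 for the full control effect; nearly all actives have a fitted effect of over 50% in size; the assay follows cell death caused by Vpr and the record does not say whether a fall means rescue or toxicity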
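Fission yeast strain RE007, carrying one chromosomally integrated HIV-1 vpr copy, was seeded at OD 0.01 in PMG+AL medium with 23 nL pinned compound. After 24 h at 30 °C and 99% humidity, viability was read by BacTiter-Glo luminescence.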
MARV entry inh = inhibitors of Marburg virus binding or cell entry | Marburg virus pseudotyped entry inhibition, cell reporter; control for the full effect not named in the record; about a third of the inactives were read at about 46 µM | Potency, µM (series often up to 37.8 µM), without a hit: top-dose activity change, negative = inhibition, hits mostly inhibitors | 1.8% of 300,000 active | AID 540276; active = well fitted inhibition curve with a large enough effect; inconclusive = small, poorly fitted or top-dose-only effect, or effect the other way; inactive = flat fitted curve, though single readings scatter; tested in HEK293 cells; about a fifth of its hits are not listed in these tables; also: % is scaled to controls: 0 for no effect and ±100 for the full control effect; luciferase read-out
LASV entry inh = inhibitors of Lassa virus binding or cell entry | 1.2% of 300,000 active | AID 540256 | Lassa virus pseudotype entry inhibition, cell reporter; control for the full effect not named in the record | Potency, µM (doses to about 37.9 µM), without a hit: at the top dose activity change, negative = inhibition, usual class: inhibitors; active means well fitted inhibition curve with a large enough effect; inconclusive means small, poorly fitted or top-dose-only effect, or effect the other way; inactive means flat fitted curve, though single readings scatter; tested in HEK293 cells; also: % is scaled to controls: 0 for no effect and ±100 for the full control effect; nearly all actives have a fitted effect of over 50% in size; luciferase read-out
SARS PLpro yeast = blocks SARS-CoV papain-like protease in a yeast assay; S. cerevisiae expressing SARS-CoV PLpro, growth rescue; control for the full effect not named in the record; Potency, µM (top dose mostly 32.9 µM), for the others: top-dose activity, positive = growth rescue; AID 485353; 0.19% of 330,000 active; active means well fitted rising curve with a large enough effect; inconclusive means small, poorly fitted or top-dose-only effect; inactive means no such curve, though single readings can be large or run the other way; also: 0% is about no effect; nearly all actives have a fitted effect of over 55% in size; growth read by luminescence after 48 h
StopGo reporter = lowers the luciferase signal of an FMDV 2A StopGo reporter. human cells with a luciferase reporter of 2A StopGo recoding; control for the full effect not named in the record. Potency, µM (titrated, usually from 57.9 µM), inactives show at the top dose signal change, negative = less light. 1.2% of 410,000 active; active = well fitted falling curve with a large enough effect; inconclusive = small, poorly fitted or top-dose-only effect; inactive = no such curve, though single readings can be large or run the other way; tested in HEK293T cells; also: % is scaled to controls: 0 for no effect and ±100 for the full control effect; nearly all actives have a fitted effect of over 45% in size; luciferase light after 4 h
The depositor's hits bear a star; ? = inconclusive; nt = not tested or not shown; & = joins results of further samples; [ ] = another dose, or the depositor's remark. Unless noted, calls follow the shape of the dose curve; as a rule, active = well fitted curve in the direction sought with a large enough effect; inconclusive = small, poorly fitted or top-dose-only effect, or another doubt; inactive = no such curve, though single readings can be large; an effect the other way counts as inactive or inconclusive. Potency is read from the fitted curve at half-maximal effect.

SMILES	Cruzain Triton	NS1 function inh	Cruzain inh noDet	RE007 growth inh	MARV entry inh	LASV entry inh	SARS PLpro yeast	StopGo reporter
COc1cc2c(=O)n(CCC(=O)NCC3CCCO3)c(=O)n(CC(=O)Nc3ccc(F)cc3)c2cc1OC (configuration not stated)	-0.8%	-7%	-4%	-5%	?	?	9%	2%&-14%
C=C(C)COc1ccc(-c2[nH]ncc2Oc2ccccc2OC)c(O)c1	-2.4%	-115%	-9%	?	-17%	?	nt	nt
CCOC(=O)Cn1c(=O)n(C2CCCCC2)c2nc(-c3ccccc3Cl)nc(C(N)=O)c21	-3.0%	nt	-11%	nt	nt	-4%[46.1 µM]	nt	?
Oc1ccccc1CNc1ccc2c(c1)OCCO2	nt	7%	nt	-9%	-10%[46.1 µM]	18%[46.1 µM]	-1%	30%[activator]
CCOc1ccc(/C=C/C(=O)c2ccccc2)cc1OC	-5.6%	-30%	0%	-19%	-9%	8%	-17%	-15%
CC1=C(C(=O)OC2CCCCC2)C(c2ccco2)C2=C(CC(C)(C)CC2=O)N1 (configuration not stated)	-9.1%	-42%	4%	-9%	-1%[46.1 µM]	?	3%	?
CCOC(=O)c1ccc(NC(=S)N2CCN(CCO)CC2)cc1	nt	1%	nt	-9%	?	-17%	-1%	12%
O=C(CS(=O)(=O)Nc1ccc(F)cc1Cl)Nc1ccc(F)cc1Cl	nt	-32%	nt	-3%	?	?	-6%	-14%
Cc1cccn2c(=O)c3cc(C(=O)NCc4ccccc4Cl)sc3nc12	-2.7%	nt	2%	nt	6%[46.1 µM]	-14%[46.1 µM]	nt	10%
Cc1ccc(C)c(/C=N/NC(=S)NCCc2ccccc2)c1	-14%	-4%	-4%	20%	-8%	?	nt	-11%
Cc1cc(C)c(NC(=O)C2CCCN2C)c(C)c1 (configuration not stated)	1.6%	4%	-4%	14%	10%	16%	5%	-17%
COc1ccc(OC)c(S(=O)(=O)N2CCCC(C(=O)N3CCC(C(N)=O)CC3)C2)c1 (configuration not stated)	nt	nt	nt	0%	23%	11%	-1%	-4%
Cc1ccc(OCc2nc(-c3ccccc3)no2)cc1	nt	-9%	nt	-6%	nt	nt	2%	40%[activator]
CNC(=O)/C(C#N)=C/c1c(F)cccc1Cl	0.5%	-23%	1%	-1%	3%	0%	-29%	-13%
CN(c1ccccc1)S(=O)(=O)c1cccc2ccccc12	nt	-28%	nt	-28%	nt	nt	-4%	-11%
O=C(COC(=O)/C=C/c1ccccc1)NNC(=O)c1ccc([N+](=O)[O-])cc1	nt	nt	nt	21%	-9%	-5%	-2%	-4%
CCc1ccc(-c2[nH]c3c(c2-c2c(-n4cccc4)n(C)c(=O)n(C)c2=O)c(=O)n(C)c(=O)n3C)cc1	-0.5%	nt	22%	nt	-1%[46.1 µM]	-8%[46.1 µM]	nt	-22%
CCn1c(SCC(=O)N/N=C(\C)c2ccncc2)nnc1-c1ccc(C)cc1	nt	4%	nt	6%	-5%[46.1 µM]	-13%[46.1 µM]	-2%	?
Cc1ccc2nc(Nc3nc(CSc4nnc(C)s4)cc(=O)[nH]3)nc(C)c2c1	nt	9%	nt	19%	3%[46.1 µM]	nt	0%	-5%
CC1CCN(c2c(NCc3ccc(C(=O)NCc4ccco4)cc3)c(=O)c2=O)CC1	-1.4%	-17%	-6%	1%	-1%	1%	5%	-23%
Clc1cccc(CN2CCCCCCC2)c1Cl	-0.9%	-1%	-3%	7%	0%	-2%	1%	-10%
COC(=O)NNC(=S)NCc1ccccc1	-1.8%	24%	-11%	-6%	-9%	-1%	15%	-19%
CN(CC(=O)Nc1cccc(F)c1)C(=O)C1CC(=O)N(Cc2ccccc2)C1 (configuration not stated)	nt	6%	nt	2%	4%[46.1 µM]	8%[46.1 µM]	1%	-2%
Cc1ccc(/C=C2/Sc3ccc(C(=O)NCc4ccccn4)cc3NC2=O)cc1	nt	5%	nt	8%	nt	nt	-1%	4%
CCOc1ccc(NC(=O)c2oc(=O)c3ccccc3c2-c2ccc(C)cc2)cc1	-0.2%	nt	-10%	nt	nt	?	nt	-29%
CCCN1C(=O)/C(=C\c2nc3ccccc3c(=O)[nH]2)c2ccccc21	nt	-3%	nt	-12%	14%[46.1 µM]	-3%	0%	-10%
COc1cccc(NC(=O)CN(c2ccc([N+](=O)[O-])cc2)S(=O)(=O)c2ccccc2)c1	-5.1%	?	-16%	3%	7%	-6%	-11%	-21%
CCOc1cc(NC(=S)NC)c(OCC)cc1NC(=O)c1ccco1	-5.9%	6%	-8%	9%	?	4%	2%	-6%
CN(C(=O)CCCN1C(=O)c2cccc3cccc(c23)C1=O)c1ccccc1	-2.6%	-5%	15%	1%	-9%[46.1 µM]	-11%	7%	?
Cc1cc(C)c(OCC(=O)Nc2ccc(S(=O)(=O)N3CCOCC3)cc2)c(C)c1	nt	-51%	nt	4%	-20%	-11%	-2%	-19%
CC(C)(C)C(=O)Nc1ccc(Sc2ccc([N+](=O)[O-])cc2)cc1	-7.0%	14%	3%	-28%	?	-10%	-9%	?
COc1ccc(Cl)cc1NC(=O)CSc1nc2ccccc2c2nc(-c3ccccc3)nn12	3.9%	nt	-7%	nt	nt	8%[46.1 µM]	nt	-25%
O=C(O)c1ccccc1-c1ccccc1C(=O)NCc1cccc(C(F)(F)F)c1	nt	-1%	nt	-7%	27%[46.1 µM]	9%	-1%	0%
COc1ccc(NC(=O)/C(Cl)=C(/Cl)S(=O)Cc2ccccc2)cn1 (configuration not stated)	0.3%	-175%	?	45µM*	?	1.6µM*	-53%	6.3µM*
N#Cc1cnn(Cc2ccccc2)c1/N=C/N1CCOCC1	1.6%	2%	-1%	-8%	0%	2%	2%	-18%
Cn1c(N)c(C(=O)c2ccc(Cl)cc2)c(=O)n(C)c1=O	-1.8%	-8%	1%	6%	9%	?	-11%	-11%
COc1ccc(CNC(=O)C2=CCN(S(=O)(=O)c3ccc(C)cc3)CC2)cc1	nt	-8%	nt	6%	-4%[46.1 µM]	13%	2%	-16%
Cc1cc(C)c(S(=O)(=O)N(C)CC(=O)NCc2ccccn2)c(C)c1	nt	1%	nt	4%	-5%[46.1 µM]	5%	-2%	-9%
CC(C)NC(=O)C(=O)c1cn(C)c2ccccc12	nt	nt	nt	-7%	16%[46.1 µM]	-5%	2%	0%
COc1cccc(C(=O)c2cc3ccc(O)cc3oc2=O)c1	-2.1%	-35%	-3%	?	-13%	-2%	-15%	14%
Cc1ccc(C(=O)NCC(=O)NCC(=O)OCc2ccc(F)cc2)cc1	nt	nt	nt	-15%	1%[46.1 µM]	18%	1%	37%[activator]
c1ccc(-c2cc(-c3nc(-c4cccnc4)no3)c3ccccc3n2)cc1	-2.8%	-27%	-1%	nt	-3%	nt	1%	nt
CCOC(=O)c1c(S(=O)(=O)N2CCCC(C(=O)Nc3cccc(C)n3)C2)c(C)n(C)c1C (configuration not stated)	1.8%	9%	4%	-6%	nt	11%[46.1 µM]	8%	-14%&0%
Cc1nnc(NC(=O)CCn2c(=O)oc3ccc(Cl)cc32)s1	nt	-3%	nt	1%	nt	nt	-4%	-13%
Cc1cc(C)cc(C(=O)N2CCC(C(N)=O)CC2)c1	3.6%	-2%	11%	3%	-2%[46.1 µM]	16%	3%	-10%
COc1ccc(CCC(=O)Nc2cccc(Cl)c2)cc1	-7.3%	-10%	5%	-25%	-2%	5%	-30%	-9%
CCOc1ccccc1N(C)C(=O)c1nn(-c2ccc(C)cc2)c(=O)c2c1c1ccccc1n2C	-0.7%	nt	-3%	nt	2%[46.1 µM]	-1%[46.1 µM]	nt	-21%
COc1ccc(CNc2nc(NCc3ccc(OC)cc3)n(C(C)=O)n2)cc1	-3.2%	6%	6%	-10%	?	-24%	3%	-10%
CN(C)c1ccc(N2C(=O)CSC2=S)cc1	-5.7%	22%	2%	nt	21%	-2%	0%	-23%
Cc1ccc2oc(C(=O)N(C)Cc3ccon3)c(C)c2c1	nt	-25%	nt	-12%	nt	nt	3%	69%[activator]
CCCOc1ccc(C2C3=C(Nc4nc(N)[nH]c(=O)c42)c2ccccc2C3=O)cc1 (configuration not stated)	nt	14%	nt	-15%	nt	nt	1%	19%
CCN1CCN(C(c2ccc(OC)cc2)c2c(O)cc(C)n(CCOC)c2=O)CC1 (configuration not stated)	0.7%	nt	?	nt	nt	-8%[46.1 µM]	nt	-15%
CCn1c(C)c(C)c2cc(C(=O)NCc3ccc(OC(C)C)cc3)ccc21	-6.5%	nt	-4%	nt	nt	0%[46.1 µM]	nt	11%
COCCCNC(=S)N(Cc1ccccc1)Cc1ccccc1	3.4%	-4%	6%	nt	?	-7%	-8%	-7%
Cc1ccc([N+](=O)[O-])cc1NC(=O)CN(C(=O)c1ccc(Cl)cc1)C1CCCCC1	-0.9%	-55%	4%	0%	?	?	-8%	-5%
CCOP(=O)(OCC)/C(C#N)=C/c1ccc(-c2ccc(F)cc2F)o1	nt	3%	nt	14%	nt	nt	-12%	-16%
CCN(CC)C(=O)Oc1ccc(Cl)c2cccnc12	nt	-1%	nt	-10%	5%[46.1 µM]	1%	0%	?
CCN(CC)c1ccc(/C=N/Nc2nc3ccccc3[nH]2)c(O)c1	-23%	-62%	?	-12%	4µM*	6.3µM*	10µM*	-26%
COc1c(Cl)cc(Cl)cc1/C=C(\C#N)c1nc(-c2ccc(Cl)cc2)cs1	6.1%	nt	29%	nt	nt	-11%[46.1 µM]	nt	-6%
CC(=O)Nc1cc(C(N)=O)c(Cl)cc1Cl	4.5%	-5%	7%	24%	-19%	-19%	2%	-3%
CC(C)(C)c1ccc(NC(=O)c2ccccc2)c([N+](=O)[O-])c1	nt	nt	nt	-11%	?	?	1%	-26%
COc1cccc(C(=O)Nc2ccc3nc(SCc4ccc(C)cc4)sc3c2)c1	-1.8%	nt	-19%	nt	6%[46.1 µM]	-1%[46.1 µM]	nt	0%
Cc1ccc(NS(=O)(=O)c2cc3c4c(cccc4c2)C(=O)NC3=O)cc1	nt	12%	nt	-1%	?	-30%[46.1 µM]	-4%	24%
